Screening results deposited in PubChem by several laboratories.
Calb FLC = C. albicans growth modulation with fluconazole | C. albicans CaCi-2 (fluconazole-resistant clinical isolate) + fluconazole, Alamar Blue growth, 48 h | growth inhibition, % (concentration not given with the values) | 0.57% of 300,000 active | AID 1979;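 active = most replicates above 75%; inconclusive = exactly half above 75%; inactive = most below 75%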;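 also: all wells also contain fluconazole at 8 µg/ml as a sub-toxic cotreatment; 0% = median of DMSO wells and 100% = median of geldanamycin control wells; wells of about 8 µL received 7.5 nL stock; the first replicate is given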
RanGTP-Imp inh = disruptors of Ran-importin-beta complex formation – biochemical, FRET, CFP-Ran, YFP-importin-beta, homogeneous, primary screen. cell-free CFP-Ran/YFP-importin-beta FRET ratio. 1.1% of 300,000 active. inhibition, % (concentration not given with the values);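 active = most replicates above 15%; inconclusive = exactly half above 15%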;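 also: 0% = DMSO wells and 100% = Ran loaded with GDP instead of GTP; wells of about 40 µL received 100 nL stock; the first replicate is given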
AF4-AF9 inh = blocks AF4 peptide binding to human AF9; P42568; AlphaScreen, biotin-AF4 peptide binding to FLAG-AF9; inhibition, % at 10 µM; 0.47% of 350,000 active; AID 651704;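 active = every replicate reaching a set inhibition limit, whatever the replicate mean, cut at about 25% in these data; inconclusive = mean inhibition reaches that limit but some replicates miss it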;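 also: 0% = plate neutral control median and 100% = total signal loss; the record names both 10 and 1 µM as test concentration; the first replicate is given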
Beta cell apopt = beta cell apoptosis inhibition; protection from apoptosis, % (test concentration not listed); 0.8% of 300,000 active; INS-1E cytokine-induced death, ATP luminescence, 48 h; percent of positive-control rescue, neutral wells zero; AID 435005;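 active = all replicates at 75% or more, or half of them and the mean; inconclusive = half reach 75% but not the mean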;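 also: 0% = cytokine-treated negative control wells and 100% = positive control rescue; higher means more ATP so stronger rescue from cytokine killing; wells of about 40 µL received 100 nL stock; the first replicate is given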
LANA-H2B inh = blocks KSHV LANA binding to histone H2A/H2B; cell-free LANA-H2A/H2B peptide, fluorescence polarization; inhibition, % (no concentration beside the values); 0.6% of 320,000 active; AID 2629; in the data active = inhibition mostly above about 10%, no sharp cut-off; inactive = mostly below about 6.7%;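 also: stock transfer was 7.5 nL into about 10 µL; 0% = median of vehicle wells and 100% = median of positive control wells; one replicate is shown; the record names a cut of 25% in any replicate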
Target sequence (Q9QR71 whole entry, looked up): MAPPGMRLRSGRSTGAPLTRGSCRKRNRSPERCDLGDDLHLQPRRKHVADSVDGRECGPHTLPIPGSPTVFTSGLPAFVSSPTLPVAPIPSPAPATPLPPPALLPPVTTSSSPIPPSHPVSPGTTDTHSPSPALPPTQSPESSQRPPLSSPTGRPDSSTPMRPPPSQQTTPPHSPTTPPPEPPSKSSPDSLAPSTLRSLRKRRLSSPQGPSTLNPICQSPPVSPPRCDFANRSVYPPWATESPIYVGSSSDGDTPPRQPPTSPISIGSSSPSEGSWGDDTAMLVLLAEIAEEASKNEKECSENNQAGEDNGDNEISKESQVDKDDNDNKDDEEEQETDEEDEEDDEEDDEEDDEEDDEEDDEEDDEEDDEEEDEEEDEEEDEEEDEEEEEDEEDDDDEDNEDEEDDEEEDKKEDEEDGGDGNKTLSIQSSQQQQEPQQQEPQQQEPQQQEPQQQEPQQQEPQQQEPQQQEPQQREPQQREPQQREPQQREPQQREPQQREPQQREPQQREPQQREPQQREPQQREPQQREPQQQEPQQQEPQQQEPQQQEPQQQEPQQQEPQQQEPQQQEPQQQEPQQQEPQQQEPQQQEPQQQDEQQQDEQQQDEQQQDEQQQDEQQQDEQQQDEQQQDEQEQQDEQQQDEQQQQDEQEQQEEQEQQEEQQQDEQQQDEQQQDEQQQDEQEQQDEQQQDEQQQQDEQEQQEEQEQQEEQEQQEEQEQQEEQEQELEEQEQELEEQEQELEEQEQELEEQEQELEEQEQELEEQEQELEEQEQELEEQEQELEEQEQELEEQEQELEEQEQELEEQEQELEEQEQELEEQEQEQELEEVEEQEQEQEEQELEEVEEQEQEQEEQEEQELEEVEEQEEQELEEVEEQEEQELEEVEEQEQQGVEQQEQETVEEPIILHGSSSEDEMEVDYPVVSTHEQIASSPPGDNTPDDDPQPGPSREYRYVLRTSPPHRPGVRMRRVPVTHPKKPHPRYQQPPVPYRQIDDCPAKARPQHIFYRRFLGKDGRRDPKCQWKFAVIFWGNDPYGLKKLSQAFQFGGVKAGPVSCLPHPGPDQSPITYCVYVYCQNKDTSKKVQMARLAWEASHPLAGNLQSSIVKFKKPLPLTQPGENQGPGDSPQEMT
T cruzi inh = T. cruzi replication inhibition; T. cruzi beta-gal in NIH3T3, luminescence, 90 h; inhibition, % (test concentration not listed); 1.4% of 300,000 active; AID 1885;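 active = mean inhibition across valid replicates above about 55%, limit read from the data; inconclusive = mean below that limit but half or more replicates reach it; inactive = mean below it, under half of replicates reach it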;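 also: signal also drops with host cell toxicity which is not excluded here; 0% = plate median of DMSO wells and 100% = zero luminescence signal; higher percent means less beta-gal luminescence so fewer parasites; stock transfer was 50 nL into about 50 µL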
Bfl-1 A1 inh = inhibitors of the anti-apoptotic protein A1, read as caspase activation | MEF A1-2A-BIM cells, Caspase-Glo 3/7 luminescence, 3 h; percent of clofoctol response, vehicle zero | caspase activation, % (no concentration beside the values) | 0.066% of 330,000 active;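 active = over half of replicate activation scores above 10%, or exactly half above 10 with the replicate mean above 10; inconclusive = replicate mean below 10 yet half the replicates above 10; inactive = over half of replicates below 10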;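 also: wells of about 30 µL received 50 nL stock; many hits fall short of the cut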
Vif TR-FRET = inhibitors of Vif binding to APOBEC3G peptide, primary screen, biochemical, TR-FRET, GST-Vif 1-94, biotin-A3G peptide, dose response retest (AID 1117319). TR-FRET GST-Vif / biotin-A3G peptide binding; higher % means a stronger effect; test concentration not given here; strong numbers were not always called active. inhibition, %, or IC50 in µM where a hit was titrated. 0.57% of 260,000 active;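 active = above the screen mean plus three standard deviations and confirmed in dose response; inconclusive = results disagree or hit not tested in dose response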;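 also: Vif residues 1-94 fused to GST binding biotinylated APOBEC3G peptide 110-148; 0% = full assay without inhibitor and 100% = GST in place of GST-Vif; retest series ran down from 100 µM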
Active calls of the source: *; ? = inconclusive; nt = no result given.

mol,Calb FLC,RanGTP-Imp inh,AF4-AF9 inh,Beta cell apopt,LANA-H2B inh,T cruzi inh,Bfl-1 A1 inh,Vif TR-FRET
COc1ccc(NC(=O)c2cccc(Cl)c2)c[n+]1[O-],-6,0.3,-11,0,0.2,-15,1.1,1%
C/C(=N\NC(=O)c1cc(-c2ccc(C)s2)nc2ccccc12)c1cccnc1,6,-0.4,-0.8,-2,-0.5,18,-3.9,-2%
CC(=O)c1cccc(N(C(=O)c2ccco2)C(C(=O)NC2CCCC2)c2ccncc2)c1 (stereo not drawn),1,2.7,nt,1,5.7,-8,0.5,4%
Cc1nn(C2CCS(=O)(=O)C2)c(Cl)c1/C=C/C(=O)OCC(N)=O (stereo not drawn),-7,-2.6,-1.9,-11,3.4,-15,-1.3,?
COc1cc([N+](=O)[O-])ccc1NC(=O)CN1CCCC1,7,-2.2,-1.5,2,-1.8,-7,-1.6,9%
CS(=O)(=O)N1c2cccc3cccc(c23)S1(=O)=O,5,2.1,-3.2,-3,1.8,-10,-0.8,-4%
COc1ccc(C(=O)CCC(=O)Nc2cccnc2)cc1OC,-2,8.7,-2.0,-4,-2.8,12,-0.4,nt
COc1ccccc1NCc1nnc(-c2ccccc2)o1,-7,1.5,-23,-3,-5.0,-5,-1.0,4%
COC(=O)c1cc(Sc2cccc(Cl)c2Cl)ccn1,42,-0.3,1.1,-4,0.9,7,0.2,-4%
O=[N+]([O-])c1cccc(-c2nnc(-c3ccccc3)o2)c1,-38,7.1,-17,nt,-0.5,5,-7.0,nt
O=C(Nc1ccc(S(=O)(=O)Nc2nccs2)cc1)c1cc(-c2ccccc2)nc2ccccc12,7,-3.0,nt,4,1.8,-3,0.9,nt
Cc1sc2nc3ccc(NCc4ccco4)nn3c(=O)c2c1C,-14,7.4,nt,-11,-2.7,-5,-1.0,?
O=C(NCc1cccnc1)c1ccccc1NS(=O)(=O)c1ccccc1,27,-1.8,-1.0,4,3.6,-3,1.2,nt
CC(=O)NC(C)c1nc2ccccc2n1C(C)C (stereo not drawn),4,-4.0,-8.9,-4,1.0,-9,-0.3,4%
CC(Sc1nnc(C2CC2)n1C1CC1)C(=O)c1ccc(F)cc1 (stereo not drawn),nt,nt,-1.5,-3,1.2,nt,0.3,13%
CCOC(=O)C1=C(O)c2ccccc2C(=O)/C1=C\c1ccc(CC)cc1,56,-19,nt,-8,1.9,-32,0.3,31%
O=C(NN=C1CCCC1)c1ccc(Cl)cc1,9,4.4,-0.9,-2,-2.2,-3,-0.2,11%
CN(C)S(=O)(=O)c1cccc(NC(=S)Nc2cccc3cnccc23)c1,18,8.4,0.0,nt,nt,16,nt,1%
Cc1ccccc1N1C(=O)C(Cc2ccc(F)cc2)S/C1=C(\C#N)C(N)=O (stereo not drawn),2,-0.8,0.0,2,-3.7,4,0.3,nt
CCOC(=O)CN(C(=O)CSc1nnc(-c2ccncc2)n1CCCN(C)C)c1ccccc1,-10,-3.9,nt,1,-5.5,-11,-1.3,1%
O=C(CN1C(=O)NC(Cc2c[nH]c3ccccc23)C1=O)Nc1ccc(F)cc1F (stereo not drawn),nt,nt,-9.4,-10,-4.8,nt,1.0,-5%
CS(=O)(=O)C1=C(O)C(=O)N(c2ccccc2)C1c1ccccc1 (stereo not drawn),-2,4.0,nt,-4,0.9,-15,0.7,-1%
CCOc1ccc(NC(=O)c2ccc3nccnc3c2)cc1,-2,-1.2,nt,-2,1.0,17,0.4,1%
CCOc1ccc2ccccc2c1C(=O)NCC(c1ccc(N(C)C)cc1)N(C)C (stereo not drawn),-31,1.0,9.2,-1,-5.4,-3,-0.4,-6%
Clc1ccc(-c2ccc(-c3nn4c(-c5ccco5)nnc4s3)o2)cc1,-35,9.9,nt,8,-7.0,22,0.8,-2%

(more compounds)
mol,Calb FLC,RanGTP-Imp inh,AF4-AF9 inh,Beta cell apopt,LANA-H2B inh,T cruzi inh,Bfl-1 A1 inh,Vif TR-FRET
COc1ccc(OC)c2[nH]c(=O)c(CCNC(=S)NC(C)(C)C)cc12,18,-1.0,2.9,5,0.1,-5,0.8,nt
COC(=O)c1ccccc1NC(NC(=O)c1ccco1)C(=O)c1ccc(C)cc1 (stereo not drawn),-2,2.1,nt,-3,-3.1,-4,0.6,-6%
Cc1cc(C(=O)N2CCc3ccccc3C2)no1,-13,-5.2,0.3,-9,-6.0,-3,0.2,nt
Cc1ccc(Cl)c(NC(=O)COC(=O)c2cc[n+]([O-])cc2)c1Cl,nt,nt,-3.1,-1,-5.2,nt,0.7,-1%
CCn1c(CCNC(=O)c2ccc(Cl)cc2)nnc1SCC(=O)NC1CCCC1,11,0.6,nt,-1,7.8,7,0.3,4%
Cc1c(Cl)cccc1NC(=O)CNC(=O)c1cn(-c2ccccc2)nc1-c1cccnc1,nt,nt,2.6,1,2.1,nt,1.4,nt
CCC(=O)c1ccc(OCC(O)Cn2cnc3ccccc32)cc1 (stereo not drawn),-3,1.7,nt,7,-1.1,-16,-0.8,-3%
COc1ccc(Cl)cc1C(=O)NNC(=O)CSc1nnnn1C,-2,-0.5,-1.2,1,-4.9,-2,-0.5,-14%
CCCC(=O)OC1CCS(=O)(=O)c2sccc21 (stereo not drawn),?,-1.5,2.8,1,-4.0,-2,-0.4,7%
COC(=O)C1=C(C)N(c2ccc(F)cc2)/C(=C/c2ccc(O)cc2)C1=O,5,-5.5,-2.2,nt,1.9,-2,0.9,1%
COC(=O)C1C(c2ccc(OC)cc2)Nc2nnc(C(F)(F)F)n2C1(C)O (stereo not drawn),12,1.0,0.7,1,-5.2,-6,0.0,nt
COc1ccc2cc(S(=O)(=O)Nc3ccccn3)ccc2c1,0,2.7,-13,17,-1.3,5,0.3,nt
CCC(=O)Nc1ccc(C(=O)CSc2nnc(-c3ccc(NS(=O)(=O)CC)cc3)o2)cc1OC,-1,3.9,2.0,4,1.8,16,0.4,13%
Cc1ccc(CN2CCc3c(OCc4ccc(F)cc4)cccc3C2=O)cc1,5,-1.1,nt,7,-2.0,22,-0.1,nt
COc1ccc(OC)c(/C=C/c2nc3ccccc3[nH]c2=O)c1,-4,-96,-16,4,4.4,3,0.4,nt
Cc1cc(NC(=O)C2CC=CCC2C(=O)O)ccc1NC(=O)c1ccccc1 (stereo not drawn),19,1.0,-1.9,-4,6.0,20,1.0,-4%
CC(=O)c1c(C)oc2c1C(=O)c1ccccc1C2=O,7,-0.6,8.0,96*,2.3,3,-0.8,?
COC(=O)c1nn(-c2ccc(OC)cc2)c(=O)cc1Oc1cccc(Cl)c1,28,1.1,nt,1,0.8,1,-0.2,-43%
CCn1ncc(Br)c1C(=O)Nc1sc2c(c1C(N)=O)CCC2,4,47*,nt,17,-6.1,16,-0.3,74%
CCOC(=O)C1(CC2CCCCO2)CCN(C(=O)Nc2ccccc2SC)CC1 (stereo not drawn),2,0.9,5.9,-1,2.8,-5,0.4,1%
COCCN(CCOC)S(=O)(=O)c1ccc(C(=O)Nc2nc(C)c(C(C)=O)s2)cc1,38,2.1,5.8,0,-1.7,6,-1.5,-3%
O=C1c2cc(N3CCCC3)c([N+](=O)[O-])cc2C(=O)N1c1ccccc1,4,-1.1,-3.0,nt,-0.4,-14,-1.0,11%
CC1(C)CC2CC(C)(CN2S(=O)(=O)c2ccc(C(=O)Nc3cccc(S(=O)(=O)N4CCOCC4)c3)cc2)C1 (stereo not drawn),-4,0.7,3.3,2,-4.2,49,0.2,nt
COc1ccc(C2C(C#N)=C(N)OC(C(C)(C)C)=C2C#N)cc1OC (stereo not drawn),3,8.2,nt,-4,-1.8,-16,0.1,-5%

As a working copy, some entries already given:
mol,Calb FLC,RanGTP-Imp inh,AF4-AF9 inh,Beta cell apopt,LANA-H2B inh,T cruzi inh,Bfl-1 A1 inh,Vif TR-FRET
O=C1c2cc(N3CCCC3)c([N+](=O)[O-])cc2C(=O)N1c1ccccc1,4,-1.1,-3.0,nt,-0.4,-14,-1.0,11%
CC1(C)CC2CC(C)(CN2S(=O)(=O)c2ccc(C(=O)Nc3cccc(S(=O)(=O)N4CCOCC4)c3)cc2)C1 (stereo not drawn),-4,0.7,3.3,2,-4.2,49,0.2,nt

Another view of 13 compounds above:
Every second line gives: Calb FLC, RanGTP-Imp inh, AF4-AF9 inh, Beta cell apopt, LANA-H2B inh, T cruzi inh, Bfl-1 A1 inh, Vif TR-FRET
COc1ccc2cc(S(=O)(=O)Nc3ccccn3)ccc2c1
    0, 2.7, -13, 17, -1.3, 5, 0.3, nt
CCC(=O)Nc1ccc(C(=O)CSc2nnc(-c3ccc(NS(=O)(=O)CC)cc3)o2)cc1OC
    -1, 3.9, 2.0, 4, 1.8, 16, 0.4, 13%
Cc1ccc(CN2CCc3c(OCc4ccc(F)cc4)cccc3C2=O)cc1
    5, -1.1, nt, 7, -2.0, 22, -0.1, nt
COc1ccc(OC)c(/C=C/c2nc3ccccc3[nH]c2=O)c1
    -4, -96, -16, 4, 4.4, 3, 0.4, nt
Cc1cc(NC(=O)C2CC=CCC2C(=O)O)ccc1NC(=O)c1ccccc1 (stereo not drawn)
    19, 1.0, -1.9, -4, 6.0, 20, 1.0, -4%
CC(=O)c1c(C)oc2c1C(=O)c1ccccc1C2=O
    7, -0.6, 8.0, 96*, 2.3, 3, -0.8, ?
COC(=O)c1nn(-c2ccc(OC)cc2)c(=O)cc1Oc1cccc(Cl)c1
    28, 1.1, nt, 1, 0.8, 1, -0.2, -43%
CCn1ncc(Br)c1C(=O)Nc1sc2c(c1C(N)=O)CCC2
    4, 47*, nt, 17, -6.1, 16, -0.3, 74%
CCOC(=O)C1(CC2CCCCO2)CCN(C(=O)Nc2ccccc2SC)CC1 (stereo not drawn)
    2, 0.9, 5.9, -1, 2.8, -5, 0.4, 1%
COCCN(CCOC)S(=O)(=O)c1ccc(C(=O)Nc2nc(C)c(C(C)=O)s2)cc1
    38, 2.1, 5.8, 0, -1.7, 6, -1.5, -3%
O=C1c2cc(N3CCCC3)c([N+](=O)[O-])cc2C(=O)N1c1ccccc1
    4, -1.1, -3.0, nt, -0.4, -14, -1.0, 11%
CC1(C)CC2CC(C)(CN2S(=O)(=O)c2ccc(C(=O)Nc3cccc(S(=O)(=O)N4CCOCC4)c3)cc2)C1 (stereo not drawn)
    -4, 0.7, 3.3, 2, -4.2, 49, 0.2, nt
COc1ccc(C2C(C#N)=C(N)OC(C(C)(C)C)=C2C#N)cc1OC (stereo not drawn)
    3, 8.2, nt, -4, -1.8, -16, 0.1, -5%
